# Screening results deposited in PubChem BioAssay by National Center for Advancing Translational Sciences (NCATS).
# NS1 function inh: influenza NS1 inhibition | S. cerevisiae slowed by influenza A NS1, growth recovery by OD600 | Potency, µM (top dose mostly 46.1 µM), for the others: at the top dose activity, positive = more growth | hit rate 0.4% among 270,000 | AID 2326; also: actives are rising curves; nearly all actives have a fitted effect of over 50% in size
#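 Growth recovery, yeast-based: influenza A NS1 expressed in S. cerevisiae causes slow growth, and suppressors are detected by OD600. The parent strain without NS1 is used as positive control.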
# RE007 growth inh: less growth of the S. pombe RE007 Vpr strain. S. pombe RE007 Vpr strain, BacTiter-Glo ATP luminescence, 24 h; control for the full effect not named in the record. Potency, µM (doses to about 92.2 µM), for the others: at the top dose activity change, negative = less growth. hit rate 0.21% among 360,000; active = well fitted falling curve with a large enough effect; inconclusive = small, poorly fitted or top-dose-only effect; inactive = no such curve, though single readings can be large or run the other way;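 also: % is scaled to controls: 0 for no effect and ±100 for the full control effect; nearly all actives have a fitted effect of over 50% in size; the assay follows cell death caused by Vpr and the record does not say whether a fall means rescue or toxicity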
#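 Fission yeast RE007 carrying one integrated HIV-1 vpr copy, seeded at OD 0.01 in PMG+AL medium with 23 nL pinned compound. Grown 24 h at 30 degrees; viability read by BacTiter-Glo luminescence after 5 min.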
# StopGo reporter: lowers the luciferase signal of an FMDV 2A StopGo reporter; human cells with a luciferase reporter of 2A StopGo recoding; control for the full effect not named in the record; Potency, µM (top dose mostly 57.9 µM), for inactives: at the top dose signal change, negative = less light; hit rate 1.2% among 410,000; AID 1159524; active = well fitted falling curve with a large enough effect; inconclusive = small, poorly fitted or top-dose-only effect; inactive = no such curve, though single readings can be large or run the other way; tested in HEK293T cells; also: % is scaled to controls: 0 for no effect and ±100 for the full control effect; nearly all actives have a fitted effect of over 45% in size; luciferase light after 4 h
# SARS PLP yeast: inhibitors of SARS-CoV papain-like protease in yeast | hit rate 0.19% among 330,000 | S. cerevisiae expressing SARS-CoV PLpro, growth rescue; control for the full effect not named in the record | AID 485353 | Potency, µM (titrated, usually from 32.9 µM), inactives show at the top dose activity, positive = growth rescue; also: 0% is about no effect; nearly all actives have a fitted effect of over 55% in size; growth read by luminescence after 48 h
# MARV entry inh: inhibitors of Marburg virus binding or cell entry. Potency, µM (titrated, usually from 37.8 µM), without a hit: top-dose activity change, negative = inhibition, hits mostly inhibitors. hit rate 1.8% among 300,000. AID 540276. Marburg virus pseudotyped entry inhibition, cell reporter; control for the full effect not named in the record; about a third of the inactives were read at about 46 µM; active = well fitted inhibition curve with a large enough effect; inconclusive = small, poorly fitted or top-dose-only effect, or effect the other way; inactive = flat fitted curve, though single readings scatter; tested in HEK293 cells; about a fifth of its hits are not listed in these tables; also: % is scaled to controls: 0 for no effect and ±100 for the full control effect; luciferase read-out
# Cruzain inh Det: blocks cruzain activity in presence of Triton detergent; hit rate 0.43% among 200,000; purified cruzain, Z-FR-AMC fluorescence, 0.01% Triton; Potency, µM, for the others: max response, negative = inhibition, actives largely listed as inhibitors; active = well fitted curve in the direction sought with a large enough effect; inconclusive = small, poorly fitted or top-dose-only effect, or another doubt; inactive = no such curve, though single readings can be large; an effect the other way counts as inactive or inconclusive;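 also: plate controls were neutral wells for no effect and buffer without enzyme for full effect; nearly all actives have a fitted effect of over 40% in size; top concentration of the series not given in the record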
# Target sequence (P25779 123-467 limits assumed): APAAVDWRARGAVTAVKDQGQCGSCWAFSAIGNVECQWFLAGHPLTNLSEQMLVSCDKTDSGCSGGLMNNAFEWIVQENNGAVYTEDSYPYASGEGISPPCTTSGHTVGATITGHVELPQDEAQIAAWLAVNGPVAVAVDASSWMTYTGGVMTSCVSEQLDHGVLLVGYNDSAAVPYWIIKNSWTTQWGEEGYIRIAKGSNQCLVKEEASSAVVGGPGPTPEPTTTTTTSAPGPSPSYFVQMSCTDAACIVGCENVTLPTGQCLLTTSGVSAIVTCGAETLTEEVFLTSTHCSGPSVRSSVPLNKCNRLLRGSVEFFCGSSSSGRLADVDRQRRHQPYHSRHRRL
#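 Steps: dispense cruzain (1.5 nM final) in acetate buffer pH 5.5 with DTT and 0.01% Triton X-100; pin-transfer compounds; incubate 15 min RT; add Z-FR-AMC (2 uM final); read fluorescence every 30 s, using the 60 s intensity change.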
# Lassa entry inh: inhibitors of Lassa virus binding or cell entry; Lassa virus pseudotype entry inhibition, cell reporter; control for the full effect not named in the record; Potency, µM (highest dose often 37.9 µM), inactives show top-dose activity change, negative = inhibition, usual class: inhibitors; hit rate 1.2% among 300,000; active means well fitted inhibition curve with a large enough effect; inconclusive means small, poorly fitted or top-dose-only effect, or effect the other way; inactive means flat fitted curve, though single readings scatter; tested in HEK293 cells; also: % is scaled to controls: 0 for no effect and ±100 for the full control effect; nearly all actives have a fitted effect of over 50% in size; luciferase read-out
# Cruzain noTriton: inhibitors of Trypanosoma cruzi cruzain without detergent; purified cruzain, Z-FR-AMC fluorescence, no detergent; Potency, µM, for inactives: max response, negative = inhibition, actives largely listed as inhibitors; hit rate 2.3% among 200,000; P25779; active = well fitted curve in the direction sought with a large enough effect; inconclusive = small, poorly fitted or top-dose-only effect, or another doubt; inactive = no such curve, though single readings can be large; an effect the other way counts as inactive or inconclusive;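 also: plate controls were enzyme without inhibitor for no effect and buffer without enzyme for full effect; nearly all actives have a fitted effect of over 40% in size; top concentration of the series not given in the record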
#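 Purified cruzain at 1.5 nM, pre-incubated 15 min with compound at room temperature in 100 mM sodium acetate pH 5.5, 5 mM DTT, 0.00005% Triton X-100. Reaction started with 2 uM Z-FR-AMC; AMC fluorescence increase over 60 s gives rate.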
# Active calls of the source: *; ? = inconclusive; · = no result given; & = joins results of further samples; [ ] = dose if it differs, or a comment. Unless noted, calls follow the shape of the dose curve; as a rule, active means well fitted rising curve with a large enough effect; inconclusive means small, poorly fitted or top-dose-only effect; inactive means no such curve, though single readings can be large or run the other way. Potency is read from the fitted curve at half-maximal effect. An unsorted share of the library, and some 4.8% of all compounds hit somewhere here.
no.	SMILES	NS1 function inh	RE007 growth inh	StopGo reporter	SARS PLP yeast
1	Cn1c(SCC(=O)C(C)(C)C)nnc1-c1ccc(F)cc1	·	6%	16%	1%
2	COc1ccc(OC)c(C2=NS(=O)(=O)N(C)C(C(=O)Nc3ccc(F)cc3F)=C2)c1	0%	-15%	?	-10%
3	COc1ccc(C(=O)NC2(C(F)(F)F)NC(=O)N(CCCc3ccccc3)C2=O)cc1OC (stereo not given)	-9%	-10%	?	14%
4	CCN(CC)C(=O)CSc1nnc([C@H](CCSC)NC(=O)OC(C)(C)C)o1	6%	19%	0%	3%
5	O=C(CSc1nnc(Cc2cccs2)n1-c1ccc(Cl)cc1)NCc1ccc2c(c1)OCO2	14%	2%	-17%	2%
6	COc1ccc(Nc2nnc(-c3ccc(C)c(S(=O)(=O)NCCO)c3)c3ccccc23)cc1C(N)=O	·	·	22%	·
7	Cc1nc(SCC(=O)NC2CCCCC2C)c(C#N)c(C)c1C (stereo not given)	·	13%	-23%	-12%
8	Cc1c(Cc2ccccc2)c(=O)oc2cc(OC(=O)c3ccccc3)ccc12	4%	-16%	29%	0%
9	COc1ccc(CNC(=O)c2ccc(Cn3nc(C)cc3C)o2)cc1	10%	12%	-11%	4%
10	COc1ccc(C(=O)N2CCn3c(C)ccc3C2C)cc1 (stereo not given)	11%	-10%	2%	0%
11	CC[C@]12c3[nH]c4ccc(OC)cc4c3CCN1C(=O)C(CC(=O)NCC13CC4CC(CC(C4)C1)C3)C[C@@H]2C(=O)N1CCN(C(=O)c2ccco2)CC1 (stereo not given in full)	·	9%	?	-8%
12	COCCN1C(=O)/C(=C/c2ccc(Oc3ccc([N+](=O)[O-])cn3)c(OC)c2)SC1=Nc1ccccc1	2%	13%	4%	14%
13	CCOC(=O)c1c(C)oc2ncnc(Nc3ccc(OCC)cc3)c12	·	·	2%	·
14	Cc1nn(CC(=O)NCCc2cccs2)c(=O)c2cc3ccccc3n12	8%	-4%	-6%	-7%
15	Cc1ccc(/C=C2/NC(=O)N(Cc3ccc(Br)cc3)C2=O)o1	-44%	·	-17%	-53%

no.	MARV entry inh	Cruzain inh Det	Lassa entry inh	Cruzain noTriton
1	?	·	25%[46.1 µM]	·
2	-1%&-1%[46.1 µM]	-2.9%	3%[46.1 µM]	6%
3	?	-5.8%	-8%	?
4	-21%	-4.3%	-20%	-5%
5	-3%[46.1 µM]	-2.6%	-1%	-3%
6	·	-4.3%	2%[46.1 µM]	16%
7	-28%	·	11%	·
8	?	-4.4%	0%	?
9	·	·	·	·
10	·	·	·	·
11	-1%	·	·	·
12	1%	-6.5%	?	?
13	·	-0.6%	5%[46.1 µM]	-14%
14	·	·	·	·
15	10%	-5.0%	?	?

# Gathered by group, those above with a thiophene ring, fused or not (two)
no.	SMILES	NS1 function inh	RE007 growth inh	StopGo reporter	SARS PLP yeast
5	O=C(CSc1nnc(Cc2cccs2)n1-c1ccc(Cl)cc1)NCc1ccc2c(c1)OCO2	14%	2%	-17%	2%
14	Cc1nn(CC(=O)NCCc2cccs2)c(=O)c2cc3ccccc3n12	8%	-4%	-6%	-7%

no.	MARV entry inh	Cruzain inh Det	Lassa entry inh	Cruzain noTriton
5	-3%[46.1 µM]	-2.6%	-1%	-3%
14	·	·	·	·

# (next part)
no.	SMILES	NS1 function inh	RE007 growth inh	StopGo reporter	SARS PLP yeast
16	Cc1ccc(S(=O)(=O)N2CCC(C(=O)OCC(=O)N(C)Cc3ccccc3)CC2)cc1C	·	0%	?	-1%
17	O=C(CN1CCCC1)NCC1(c2ccccc2)CCOCC1	-12%	-5%	21%	5%
18	COc1ccc(-c2cc3nc(C)n(N)c(=O)c3s2)cc1	-3%	11µM*	7.9µM*	-7%
19	CC(NC(=O)C(=O)NCCN1CCN(C(=O)c2ccc([N+](=O)[O-])cc2)CC1)c1ccccc1 (stereo not given)	1%	-8%	-6%	13%
20	CC(C)c1nnc(NC(=O)c2cccc(-n3cnnn3)c2)s1	14%	-6%	14%	-1%
21	CCCCNC(=O)CCn1nc(-c2ccc(Cl)cc2)ccc1=O	-1%	-13%	-9%	0%
22	COc1ccc(C(=O)N2CCN(CCNC(=O)C(=O)Nc3ccc(Br)cc3)CC2)cc1	-3%	2%	?	5%
23	Cc1c(Cl)cccc1NC(=O)Cn1c(CCC(=O)O)ccc1-c1ccccc1	4%	-4%	-14%	3%
24	Cn1ccc(CC(=O)N2CCC(N3CCC(C(=O)N4CCCC4)CC3)CC2)c1	6%	-10%	1%	-1%
25	CC1=CC(C#N)(C#N)C(C#N)(C#N)C(c2ccccc2)N1 (stereo not given)	14%	·	·	13%
26	Cc1ccc2nc(NC(=O)C3CSC4(C)CCC(=O)N34)sc2c1 (stereo not given)	·	23%	31%[activator]	-2%
27	CCCC1C(=O)N(Cc2ccccc2)C(=O)CC1C (stereo not given)	-4%	-3%	-9%	0%
28	COc1ccc(C2CC(=O)N(Cc3ccc(C)cc3)c3c2c(C)nn3-c2nc(C)cc(C)n2)c(OC)c1 (stereo not given)	·	·	?	·
29	C=CCn1c(SCC(=O)Nc2nc(C)cs2)nnc1C(C)NC(=O)c1ccccc1Cl (stereo not given)	-2%	2%	16%	-8%
30	COc1ccccc1OCC(=O)Nc1nc2c(s1)CC(C)CC2 (stereo not given)	·	·	-2%	·

no.	MARV entry inh	Cruzain inh Det	Lassa entry inh	Cruzain noTriton
16	4%[46.1 µM]	·	1%	·
17	-5%	4.7%	?	-6%
18	·	·	·	·
19	-2%[46.1 µM]	·	-4%	·
20	?	1.2%	11%	5%
21	?	·	-20%[46.1 µM]	·
22	?	·	?	·
23	·	·	·	·
24	?	·	21%	·
25	-3%	3.3%	·	-28%
26	4%	·	16%	·
27	-15%[46.1 µM]	·	-1%[46.1 µM]	·
28	2%[46.1 µM]	1.4%	16%[46.1 µM]	24%
29	4%	-4.1%	-14%	9%
30	11%[46.1 µM]	-8.6%	17%[46.1 µM]	0%

# Reformatted with values under each structure: 2 of the compounds above
# Values run as follows: NS1 function inh, RE007 growth inh, StopGo reporter, SARS PLP yeast, MARV entry inh, Cruzain inh Det, Lassa entry inh, Cruzain noTriton
22) COc1ccc(C(=O)N2CCN(CCNC(=O)C(=O)Nc3ccc(Br)cc3)CC2)cc1
    -3%, 2%, ?, 5%, ?, ·, ?, ·
23) Cc1c(Cl)cccc1NC(=O)Cn1c(CCC(=O)O)ccc1-c1ccccc1
    4%, -4%, -14%, 3%, ·, ·, ·, ·

# (listing goes on)
no.	SMILES	NS1 function inh	RE007 growth inh	StopGo reporter	SARS PLP yeast
31	Cc1ccc(C(C)C)c(OCCCN2C(=O)NC(C)(C)C2=O)c1	-5%	6%	-24%	8%
32	CC(=O)Nc1ccc(N=Cc2ccc[nH]2)cc1	-11%	-4%	-7%	-4%
33	NNC(=O)c1ccc(COc2cccc3ccccc23)cc1	?	20%	-5%	-51%
34	CN1CCN(CC#CCC(O)(c2ccccc2)c2ccccc2)CC1	-1%	0%	-11%	0%
35	CCCn1cnc2scc(-c3ccc(OC)cc3)c2c1=O	-20%	3%	-10%	-2%
36	CCO[C@@H]1OC(C(=O)N2CCN(Cc3ccc4c(c3)OCO4)CC2)=C[C@H](C2CCCCC2)[C@H]1CCCO	-16%	8%	?	0%
37	COc1ccc(NC(=O)Cn2c(=O)n(Cc3nc(C)no3)c(=O)c3cc4c(cc32)OCO4)cc1	·	·	-13%	·
38	O=S(=O)(c1ccc(-c2ccon2)s1)N1CCOCC1	0%	6%	3%	-1%
39	COc1ccc(NC(=O)C2CCN(S(=O)(=O)c3ccc4[nH]c(=O)ccc4c3)CC2)c(OC)c1	·	·	-10%	·
40	CCCCn1c(N)c(N(CC(C)C)C(=O)c2ccc(-n3c(C)ccc3C)cc2)c(=O)[nH]c1=O	·	-14%	-24%	-5%
41	CCn1c(C)nc2cc(S(=O)(=O)Nc3ccc(C)cc3)ccc21	3%	-18%	-14%	1%
42	Nc1cc2c(cc1Br)[nH]c(=O)c1ccccc12	·	-23%	-24%	·
43	CCc1ccccc1NC(=O)Cn1nnc(-c2cccnc2)n1	-5%	9%	-29%	2%
44	N#C/C(=C\c1cccs1)c1nc2ccccc2[nH]1	-4%	-2%	-3%	-28%
45	CC(NCC(=O)NCC(=O)Nc1ccc(F)cc1)c1cccc(C(F)(F)F)c1 (stereo not given)	·	21%	-18%	2%

no.	MARV entry inh	Cruzain inh Det	Lassa entry inh	Cruzain noTriton
31	?	-0.3%	12µM*	?
32	11%	3.9%	15%	-7%
33	-1%	-12%	10%	?
34	17%	·	-1%	·
35	?	·	-14%	·
36	·	·	·	·
37	·	-3.9%	6%[46.1 µM]	6%
38	0%[46.1 µM]	·	-19%	·
39	·	0.3%	-5%[46.1 µM]	-2%
40	?	·	1%	·
41	?	·	-7%[46.1 µM]	·
42	?	·	?	·
43	-8%	5.0%	-5%	8%
44	-4%	-1.4%	21%	-11%
45	6%	·	3%	·

# Remaining list, next part.
no.	SMILES	NS1 function inh	RE007 growth inh	StopGo reporter	SARS PLP yeast
46	COCC(=O)NCCNc1nc2ccc(C)cc2cc1C	-7%	0%	13%	9%
47	COc1ccccc1N1CCN(C(=O)CSc2nnc(NC(=O)c3ccco3)s2)CC1	-59%	-17%	-6%	4%
48	COc1ccc(Br)cc1CNC(=O)c1cc2ccccn2n1	·	·	10%	·
49	COc1ccc(NC(=S)Nc2ncccc2C)cc1OC	·	-18%	0%	-1%
50	O=C(CNS(=O)(=O)c1ccc(Br)cc1)N1CCOCC1	-2%	0%	20%	-4%

no.	MARV entry inh	Cruzain inh Det	Lassa entry inh	Cruzain noTriton
46	5%	0.0%	10%	-2%
47	5%&5%	-1.6%	3%	-7%
48	·	-3.8%	?	-20%
49	-5%[46.1 µM]	·	?	·
50	2%	3.6%	3%	5%
